# CtBP-E1A inh: blocks the CtBP interaction with E1A | AlphaScreen GST-E1A/His-CtBP binding, 1536-well; active compounds read low; control for the full effect not named in the record | activity change, % (concentration not given with the values) | 340,000 compounds, 0.49% hits; in the data active means activity change below about -65%; inconclusive means about -30% to -65%; inactive means above about -30%; further: on the % scale 0 is the no-effect control and ±100 the full control effect
#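 GST-E1A and His-tagged CtBP (125 nM each as 5X stock) were preincubated with pin-transferred compound for 2 h at 37 °C in the dark, then glutathione donor and nickel acceptor beads were added for 1 h before AlphaScreen reading.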
# Six1-Eya2 blk: inhibitors of human Six1/Eya2 interaction. Q15475+O00167. AlphaScreen GST-Six1/His-Eya2 binding, biochemical; active compounds read low; control for the full effect not named in the record. activity change, % (test concentration not listed). 360,000 compounds, 0.56% hits. AID 651725; in the data active = activity change below about -65%; inconclusive = about -30% to -65%; inactive = above about -30%; further: on the % scale 0 is the no-effect control and ±100 the full control effect
#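 AlphaScreen with GST-Six1 and His-Eya2 (5X mix: 250 nM and 500 nM), glutathione donor and nickel acceptor beads; buffer 50 mM Tris pH 8.0, 300 mM NaCl, 1 mM TCEP; 1 h at 37 C in the dark.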
# TRPV1 potentiator: human TRPV1 potentiation; TRPV1-expressing cells, Fluo-8 calcium influx, capsaicin EC20 potentiation; host cell line not named in the record; control for the full effect not named in the record; potentiation, % at 8.33 µM; Q8NER1; AID 540277; 320,000 compounds, 0.02% hits; active means potentiation above 80%; inconclusive means 30% to 80%; inactive means below 30%; further: 0% is about no effect
# Target sequence (Q8NER1 whole entry, looked up): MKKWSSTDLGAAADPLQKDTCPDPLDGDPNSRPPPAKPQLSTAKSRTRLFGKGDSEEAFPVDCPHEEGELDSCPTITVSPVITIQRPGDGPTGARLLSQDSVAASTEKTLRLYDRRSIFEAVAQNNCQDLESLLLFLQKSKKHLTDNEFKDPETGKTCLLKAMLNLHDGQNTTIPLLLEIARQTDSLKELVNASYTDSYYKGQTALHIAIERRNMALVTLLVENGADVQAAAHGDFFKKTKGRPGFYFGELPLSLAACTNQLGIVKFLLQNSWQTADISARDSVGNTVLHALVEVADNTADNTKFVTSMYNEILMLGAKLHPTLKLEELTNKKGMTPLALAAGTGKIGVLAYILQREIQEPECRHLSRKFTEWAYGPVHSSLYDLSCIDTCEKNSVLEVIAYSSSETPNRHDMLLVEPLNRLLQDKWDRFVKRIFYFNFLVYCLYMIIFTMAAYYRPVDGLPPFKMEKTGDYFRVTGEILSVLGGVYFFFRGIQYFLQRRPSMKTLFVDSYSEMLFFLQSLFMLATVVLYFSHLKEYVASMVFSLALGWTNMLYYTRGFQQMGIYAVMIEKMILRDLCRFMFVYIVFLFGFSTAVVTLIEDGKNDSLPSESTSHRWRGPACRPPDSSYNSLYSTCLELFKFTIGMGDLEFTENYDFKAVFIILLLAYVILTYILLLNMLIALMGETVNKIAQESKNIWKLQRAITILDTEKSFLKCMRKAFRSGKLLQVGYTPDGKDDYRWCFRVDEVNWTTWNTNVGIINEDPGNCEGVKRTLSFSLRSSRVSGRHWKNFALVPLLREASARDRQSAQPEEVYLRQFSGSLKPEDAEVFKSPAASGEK
#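 Cells expressing TRPV1 were dye-loaded with Fluo-8 and read kinetically: 10 s baseline, 3 min after compound (agonist portion), then 2 min after EC20 capsaicin (allosteric enhancer portion). Calcium-bound dye fluorescence at 480/520 nm.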
# PINK1 expr mod: modulators of PINK1 expression; PINK1 immunofluorescence, high-content cytometry, 24 h; Potency, µM (doses to about 76.6 µM), for inactives: at the top dose activation (PINK1 increase), actives largely listed as activators; 410,000 compounds, 0.2% hits; AID 624263; active = well fitted activation curve with a large enough effect; inconclusive = small, poorly fitted or top-dose-only effect; inactive = flat fitted curve, though single readings scatter; cell line not stated here;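 further: potency means the concentration at half of the fitted maximal effect; % of control where 0% means no effect; nearly all actives have a fitted effect of over 65% in size; a mitochondrial uncoupler was the plate control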
#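 Cells are seeded, rested 12 hours, then given compound at five concentrations or DMSO for 24 hours. After fixation, blocking and antibody staining, PINK1 amount and mitochondrial localization are scored; CCCP serves as control.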
# Sfp inh: blocks B. subtilis Sfp PPTase activity; Q9F4F7; Biochemical Sfp PPTase activity, qHTS; Potency, µM, without a hit: max response, negative = inhibition, usual class: inhibitors; 310,000 compounds, 3.5% hits; AID 1490; active means well fitted inhibition curve with a large enough effect; inconclusive means small, poorly fitted or top-dose-only effect, or another doubt; inactive means no such curve, though single readings can be large or run the other way;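 further: the enzyme is Sfp with the accession as filed and its product quenches rhodamine fluorescence; potency means the concentration at half of the fitted maximal effect; 0% = enzyme reaction without inhibitor and -100% = no enzyme wells; top concentration of the series not given in the record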
#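 Fluorescence-quenching assay with 15 nM Sfp, 5 uM rhodamine-CoA and 12.5 uM BHQ-2-labelled ybbR peptide in pH 7.6 Hepes/MgCl2 buffer. Enzyme was pre-incubated with compound for 15 min at room temperature. Rate was taken from the 30-min fluorescence change (525/598 nm).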
# D2 PAM: potentiates the human D2 dopamine receptor allosterically | P14416 | DiscoveRx D2 beta-arrestin cells, luminescence, 90 min; 100% = 57 uM dopamine signal | potentiation, % (no concentration beside the values) | 360,000 compounds, 0.23% hits | AID 624464; active = potentiation of 50% or more; inconclusive = 30% to 50%; inactive = 30% or less;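 further: compound concentration not given in the record; tested on top of an EC20 dose of dopamine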
#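 D2 cells co-treated with compound plus 50 nM dopamine (EC20) for 90 min at 37 deg C to detect potentiation. Beta-arrestin recruitment was read as enzyme-fragment luminescence after 1 h at ambient temperature. Full response was set by 57 uM dopamine.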
# D2 agonist: agonists of human D2 dopamine receptor (beta-arrestin). DiscoveRx PathHunter D2 beta-arrestin, luminescence, 90 min; 100% = 57 uM dopamine signal. P14416. activation, % (no concentration beside the values). 360,000 compounds, 0.084% hits; in the data active = activation above about 40%; inconclusive = about 15% to 40%; inactive = below about 15%; further: compound concentration not given in the record; the text of the record calls up to 30% inactive
#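 DiscoveRx PathHunter D2 beta-arrestin cells (2,100/well) attached overnight, then compound-stimulated 90 min at 37 C in HBSS/10 mM HEPES/0.1% Tween-20 buffer; beta-galactosidase complementation read by luminescence after 1 h at ambient temperature. Dopamine 57 uM final (EC100) as control.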
# * hit, by the source's call; ? = inconclusive; / = no result given; [ ] = another dose, or the depositor's remark.
SMILES,CtBP-E1A inh,Six1-Eya2 blk,TRPV1 potentiator,PINK1 expr mod,Sfp inh,D2 PAM,D2 agonist
COc1ccc(-c2nn(-c3ccccc3)cc2C(=O)Nc2nccs2)cc1,-2,-3,-9,?,22%,-3,-0.7
CCn1cc(C(=O)Nc2ccc(OC)c(S(=O)(=O)N3CCCCC3)c2)c(=O)c2ccc(C)nc21,-9,5,1,15%,19%,-9,-0.6
COc1cccc(C(=O)N/N=C(/c2ccccc2)c2ccccn2)c1,?,?,13,3.3%,3%,-22,-3.0
O=C(COC(=O)c1cc([N+](=O)[O-])ccc1N1CCOCC1)NC1CCCCC1,-3,0,-7,0.6%,/,-8,-0.9
CC(CCN1CCC(CN2C(=S)NCC2Cc2ccccc2)CC1)c1ccccc1 (stereo not drawn),-5,-5,/,2.2%,/,-20,-2.4
CCCCCCN1C[C@@H](n2cc(COC(=O)c3ccccc3)nn2)[C@H](O)C[C@@H]1c1ccccc1,-10,8,/,-2.5%,/,-4,-1.2
Cc1nn(-c2ccccc2)c(C)c1CNC(=O)c1ccc(S(=O)(=O)NCc2ccco2)cc1,14,-2,/,0.4%,/,-5,-3.2
Cc1c(Cl)cnn1CC(=O)NC1C(=O)N2C(C(=O)O)=C(CSc3nnnn3C)CSC12 (stereo not drawn),8,-12,9,-1.0%,50µM*,-5,3.3
O=C(NCC1CCCO1)c1ccccc1NS(=O)(=O)c1cccc([N+](=O)[O-])c1 (stereo not drawn),-15,0,/,1.0%,/,-1,-1.4
CCOC(=O)c1c(C)[nH]c(C)c1C(=O)COC(=O)c1ccc(O)cc1,15,-26,-2,2.0%,10%,-3,-0.3
COc1cccc(C2=NOC(C(=O)NC(C)(C)C)C2)c1 (stereo not drawn),4,4,6,8.5%[38.3 µM],12%,-8,-2.1
Cc1cccc(C(=O)OC(C)CN2CCCC2)c1 (stereo not drawn),/,1,3,-0.5%,7%,-59,-1.2
N#Cc1ccccc1CCN1C(=O)c2ccccc2C1=O,7,2,-11,3.4%,21%,4,1.1
CNc1cnn(-c2ccccc2)c(=O)c1Cl,6,1,0,-1.1%,21%,0,-3.5
COc1ccc(C(=O)C(C)OC(=O)COc2ccccc2)cc1 (stereo not drawn),/,9,/,0.0%,/,1,2.7
CCOC(=O)N1CCN(C(=O)C2CC(c3cc(OC)ccc3OC)=NO2)CC1 (stereo not drawn),2,2,?,3.4%[38.3 µM],-11%,-1,-1.9
Cc1nc(Nc2ccccc2)[nH]c(=O)c1CCC(C)C,8,0,-15,/,11%,-11,-0.7
O=C(CC(NS(=O)(=O)c1ccc(Cl)cc1)c1ccco1)N1CCc2ccccc21 (stereo not drawn),-5,-7,3,0.1%[38.3 µM],8%,-25,-2.5
CCCCN1CC(N2CCN(CCN(C)C)CC2)CS1(=O)=O (stereo not drawn),2,3,/,1.1%,/,0,-4.7
CCOc1ccccc1C(=O)NC(CO)C(=O)O (stereo not drawn),6,4,-2,-0.4%,14%,11,3.3
CC(=O)Nc1ccc(NC(=O)C(C)OC(=O)/C=C/c2cn(-c3ccccc3)nc2-c2cccnc2)cc1 (stereo not drawn),4,0,-3,-1.5%,-7%,-5,-4.6
CCCC(=O)NC(c1cccs1)c1cc(Cl)c2cccnc2c1O (stereo not drawn),-71*,?,19,1.0%,-1%,-17,-6.1
O=C(NC1CCS(=O)(=O)C1)c1ccc(S(=O)(=O)NCC2CCCO2)cc1 (stereo not drawn),11,8,24,-2.3%,9%,0,0.7
Cc1ccc2c(CN3CCN(S(=O)(=O)/C=C/c4ccccc4)CC3)cc(=O)oc2c1,10,3,23,2.1%,12%,-5,-3.8
CS(=O)(=O)Nc1cccc(C2=NN(C(=O)c3ccccc3Cl)C(c3ccccc3O)C2)c1 (stereo not drawn),0,-7,12,3.9%,4%,-2,-0.3
CC1CC1C(=O)Nc1nc(-c2cccs2)c(-c2cccs2)s1 (stereo not drawn),8,-3,6,1.4%,50µM*,7,1.9
COc1ccc(CNC(=S)Nc2ccc(F)c(Cl)c2)cc1OC,0,-6,-8,3.4%,18%,-2,8.2
COc1ccc(Cc2n[nH]c(=S)n2NC(=O)Nc2ccc(Cl)c(Cl)c2)cc1,/,3,-6,40µM*,-18%,-9,9.1
CC(C)CC1(C)N=C(c2ccccc2)C(=S)N1 (stereo not drawn),-14,0,-11,4.2%,-14%,-3,-2.8
COc1cccc(-n2c(=O)n(Cc3ccccc3)c(=O)c3[nH]cnc32)c1,0,9,11,0.4%,-8%,-27,-12
CCOC(=O)c1c(NC(=S)N2CCN(C)CC2)sc(C)c1-c1ccccc1,3,-16,-10,-1.6%,-14%,-9,-5.1
CC1(C(=O)NS(=O)(=O)c2ccc(Cl)cc2)CCN1C(=O)c1ccccc1 (stereo not drawn),11,5,/,-0.6%,/,-8,-2.0
c1ccc(CN=C2Nc3ccccc3CS2)nc1,1,1,0,-2.0%,4%,-8,0.4
NS(=O)(=O)c1ccc(NC(=O)CSc2nnc(C3CC3)n2C2CC2)cc1,6,6,11,-0.3%,/,0,-3.1
CC(C)NC(=O)NC(=O)CN1C(=O)NC(Cc2c[nH]c3ccccc23)C1=O (stereo not drawn),/,-3,0,-1.5%,10%,-8,-2.6
CCCCn1cc(C(=O)c2cc(Br)ccc2O)cc(C#N)c1=O,2,-2,3,18µM*,-7%,4,4.6
O=C(c1cn(-c2ccccc2)nc1-c1cccc([N+](=O)[O-])c1)N1CCCCC1,-1,0,3,0.4%,-20%,12,-1.9
O=C(O)c1cc(N/N=C/c2ccc(N3CCOCC3)s2)ccc1Cl,-6,?,17,-0.7%,56µM*,22,11
O=C(Nc1ccc(NC(=O)c2ccco2)cc1)c1cnccn1,0,-4,-31,-1.2%,4%,8,1.1
NS(=O)(=O)c1ccc(N2N=C(c3ccccc3)CC2c2ccccc2)cc1 (stereo not drawn),32,30,3,-3.6%,-11%,1,1.3
FC(F)(F)c1ccc(Cl)c(-n2c(-c3cc(-c4ccco4)[nH]n3)n[nH]c2=S)c1,-4,-9,?,0.0%,-18%,-8,1.4
CCOC(=O)N1CCC(NC(=O)c2cccs2)CC1,0,0,-10,-1.5%,6%,-1,-6.1
COc1ccc(C(=O)Nc2ccc3ccccc3c2)cc1,/,-2,-8,5.6%,22%,-21,-4.5
CCCOc1ccc(C(=O)NC(=S)NNC(=O)c2c(-c3ccccc3)noc2C)cc1,?,?,-32,7.2%,12%,-23,-14
CC1CCC2(CC1)NC(=O)N(CC(=O)Nc1sc3c(c1C(N)=O)CCC3)C2=O (stereo not drawn),0,-11,-12,1.1%,?,-8,4.8
COc1c(C(O)CC(C)C)ccc2c1C(=O)OCc1cc(C)cc(O)c1O2 (stereo not drawn),3,1,3,7.1%,3%,-11,-2.3
Cc1nc2ccccc2n1CC(=O)NCCN1CCOCC1,2,4,2,6.6%[38.3 µM],4%,0,1.8
CC1=C(C(=O)Nc2ccc(CC(=O)NCc3ccccc3C)cc2)SCCO1,-2,-1,-5,3.3%,11%,-1,3.3
COCCN(C(=O)COC(=O)CCCc1c[nH]c2ccccc12)c1c(N)n(Cc2ccccc2)c(=O)[nH]c1=O,-22,1,/,0.4%,/,-1,0.3
FC(F)(F)c1cccc(NC(=S)NC2CCCC2)c1,1,-2,-10,?,1%,-18,-0.5
CC(=O)c1c(C)[nH]c(C(=O)OCC(=O)Nc2ccc(Cl)c(S(=O)(=O)N(C)C)c2)c1C,/,-10,14,1.5%,3%,-11,-0.6
CC(C)c1nc2sc3c(NCc4ccco4)ncnc3c2c2c1COC(C)(C)C2,-5,-15,-2,3.5%,2%,0,-6.5
CC(=O)Nc1cccc(C(=O)Oc2cccc(C)c2)c1O,-4,5,-14,-1.3%,4%,-2,2.0
CCCCn1c(SCc2nnc(-c3ccccc3)o2)nc2c1c(=O)n(C)c(=O)n2C,-13,0,-4,-4.2%[38.3 µM],-11%,-5,-0.4
CCOC(=O)CN1C2=NCCCN2c2ccccc21,8,-1,-4,-0.7%,17%,-12,0.1
CC(C)(C)c1ccc(C2CC2C(=O)N/N=C\c2cc3ccccc3nc2Cl)cc1 (stereo not drawn),0,-1,3,1.7%,17%,-8,-3.1
CCCc1cc(-c2ccc(O)c(OCC)c2)c(C#N)c(N)n1,-13,-3,-2,2.0%,3%,-15,3.2
CCN(CC)S(=O)(=O)c1ccc(N2CCCC2)c(C(=O)Nc2ccc(OC)c(Cl)c2)c1,7,5,14,-1.7%,6%,-14,-3.5
CCOc1ccc2[nH]cc(C(=O)NCCCN3CCOCC3)c(=O)c2c1,0,5,6,1.3%,22%,-1,-0.4
O=C(NNc1ncnc2c1cnn2-c1ccccc1)c1cccs1,5,11,8,2.8%,10%,-3,-5.9

# Additional records
SMILES,CtBP-E1A inh,Six1-Eya2 blk,TRPV1 potentiator,PINK1 expr mod,Sfp inh,D2 PAM,D2 agonist
Cc1onc(-c2ccccc2)c1C(=O)N1CCN(Cc2ccc3c(c2)OCO3)CC1,/,4,-3,-0.7%,23%,-5,-0.5
Cc1ccc(S(=O)(=O)N2CCCCC2)cc1C(=O)NC1CCCCC1,6,11,?,8.4%,12%,-1,-2.4
Cc1ccc(CC2CC(=O)N(c3nc4ccccc4n3C)C2=O)cc1 (stereo not drawn),0,-1,5,-3.0%,3%,-12,-2.5
COc1ccc(-c2cc(NC=O)c3ncc(-c4cccc(C(F)(F)F)c4)n3c2)cc1OC,-15,-10,/,5.0%,/,-10,11
COCCCNC(=O)c1ccc(C2SCC(=O)N2Cc2ccco2)cc1 (stereo not drawn),8,1,3,-1.0%,?,-9,-5.5

# Whole records, quoted from the list:
# CCN(CC)S(=O)(=O)c1ccc(N2CCCC2)c(C(=O)Nc2ccc(OC)c(Cl)c2)c1 as listed: CtBP-E1A inh: 7; Six1-Eya2 blk: 5; TRPV1 potentiator: 14; PINK1 expr mod: -1.7%; Sfp inh: 6%; D2 PAM: -14; D2 agonist: -3.5
# CCOC(=O)c1c(NC(=S)N2CCN(C)CC2)sc(C)c1-c1ccccc1 as listed: CtBP-E1A inh: 3; Six1-Eya2 blk: -16; TRPV1 potentiator: -10; PINK1 expr mod: -1.6%; Sfp inh: -14%; D2 PAM: -9; D2 agonist: -5.1

# Assay outcomes from PubChem BioAssay.

# Random draw from the library. Share with any hit: about 3.7%.
